PKD1 kinase inh = PKD1 (human) kinase inhibition; inhibition, %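 (about 10 µM by stock and volumes)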; AID 797; Q15139; 200,000 tested, 0.056% active; PKD1 kinase fluorescence polarization assay;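 active = inhibition of 50% or more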;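 also: controls were vehicle for no effect and a reference inhibitor for full effect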
Target sequence (Q15139 whole entry, looked up): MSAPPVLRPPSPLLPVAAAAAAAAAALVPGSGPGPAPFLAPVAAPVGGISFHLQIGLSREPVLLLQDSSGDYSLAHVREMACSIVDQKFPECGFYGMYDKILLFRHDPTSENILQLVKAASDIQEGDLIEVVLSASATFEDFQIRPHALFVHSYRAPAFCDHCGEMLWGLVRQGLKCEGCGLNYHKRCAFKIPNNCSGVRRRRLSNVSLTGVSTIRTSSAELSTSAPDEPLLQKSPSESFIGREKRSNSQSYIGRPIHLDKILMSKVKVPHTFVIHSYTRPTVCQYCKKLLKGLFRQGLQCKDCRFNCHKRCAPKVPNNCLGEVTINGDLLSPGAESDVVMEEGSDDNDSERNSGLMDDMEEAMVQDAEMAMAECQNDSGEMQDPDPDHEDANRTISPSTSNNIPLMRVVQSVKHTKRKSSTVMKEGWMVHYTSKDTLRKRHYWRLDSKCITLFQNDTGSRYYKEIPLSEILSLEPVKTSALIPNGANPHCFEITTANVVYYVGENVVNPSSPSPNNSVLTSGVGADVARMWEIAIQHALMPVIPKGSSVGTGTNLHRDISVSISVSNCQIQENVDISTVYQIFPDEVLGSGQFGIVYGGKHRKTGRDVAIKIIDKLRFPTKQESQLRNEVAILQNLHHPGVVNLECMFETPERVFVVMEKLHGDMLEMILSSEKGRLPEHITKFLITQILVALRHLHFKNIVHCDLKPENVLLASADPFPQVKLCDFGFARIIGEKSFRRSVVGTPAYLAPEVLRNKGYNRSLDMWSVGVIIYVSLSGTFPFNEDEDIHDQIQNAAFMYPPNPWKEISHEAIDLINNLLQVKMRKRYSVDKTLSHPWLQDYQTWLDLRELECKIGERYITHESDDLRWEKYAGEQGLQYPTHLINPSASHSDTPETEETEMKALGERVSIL
RGS16-Gao = RGS16-Galphao interaction regulator (human). O15492+P09471. bead-based flow cytometry RGS16-Galphao binding, fluorescence; actives lie on both sides. binding response (% of control), % at 10 µM. 220,000 tested, 0.38% active;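 active = below 25% or above 175%, edge rows of some plates excepted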;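 also: Galphao activated by GDP with aluminum fluoride before binding; 100% = wells without compound and 0% = beads without RGS; some results beyond the cut were filed as inactive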
INS promoter inh = TRM-6 insulin promoter activity inhibition; TRM-6 cells (human fetal islet line), insulin promoter-eGFP reporter, imaging; reporter expression induced with tamoxifen; 130,000 tested, 0.9% active; AID 1273; inhibition, % at 2 µM;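 active = inhibition above the mean plus 3 SD, with well images judged a real hit on visual review, cut at about 60% in these data, passing the limit was not always enough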
GALR2 agonist = agonists of human galanin receptor 2 (GALR2). AID 803. 140,000 tested, 0.48% active. activation, %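 (tested at 5 µM)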. O43603. GALR2-expressing cells, agonist activation read-out;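 active = above mean plus 3 SD of all compounds, about 5% in these data, not always enough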;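 also: 0% = vehicle buffer wells and 100% = reference agonist at full effect; tested in CHO reporter cells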
HSV replic up = HSV replication enhancement. 220,000 tested, 0.005% active. AID 1956. maximum fold increase. HSV replication augmentation in cells, fold increase;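 active = peak rise of 1.5-fold or more in the series; tested in PC3 cells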;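 also: first round at 10 µM; read as green reporter fluorescence; hits show the peak of a series up to 25 µM; 1 = signal of infected wells without compound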
INS promoter inh cell count = also measured in INS promoter inh; calls as there; normalized cell count, %; measured here: cell count, toxicity; reference of the scale not given here;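 cells exposed to compound for 48 h; stained nuclei by imaging scaled within each plate; lower means fewer cells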
HSV replic up primary fold = further read-out of HSV replic up, marked with its call; fold increase; compound at 10 µM; measured here: primary screen fold increase 10 uM; tested in PC3 cells;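 GFP signal in the first replicate; 1 = infected wells without compound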
Numbers without * were called inactive; i = inactive; nt = no result given.

item	canonical_smiles	PKD1 kinase inh	RGS16-Gao	INS promoter inh	INS promoter inh cell count
1	CCn1c(O)c(N=NC(=O)c2ccc(CSc3nncn3C)cc2)c2ccccc21	-6	101	-18	117
2	CCOc1nc(CC)nc(NC(=O)NS(=O)(=O)c2ccccc2Cl)n1	-13	90	nt	nt
3	O=C(Nc1ccc(-c2nc3cccnc3s2)cc1)c1ccc(Br)o1	-12	102	nt	nt
4	COc1cccc(-n2ccnc2SCC(=O)Nc2cc(OC)ccc2OC)c1	5	104	-50	104
5	O=C(Nc1cccc(C(F)(F)F)c1)c1ccc(Cn2cc(Br)cn2)o1	3	104	-29	246
6	O=C(/C(=C/O)N=Nc1ccccc1)c1ccco1	1	98	nt	nt
7	CC(=O)OC(C(=O)NCS(=O)(=O)c1ccc(C)cc1)c1cccnc1 (configuration not stated)	-6	83	24	104
8	CCCc1nc2oc3c(OC)ncnc3c2c2c1COC(C)(C)C2	0	104	-19	79

item	GALR2 agonist	HSV replic up	HSV replic up primary fold
1	0.0	i	1
2	-1.1	i	0.85
3	-0.7	i	0.78
4	-0.8	i	0.96
5	-1.1	i	0.73
6	nt	i	1
7	-0.6	i	0.97
8	0.6	i	1.2

2 entries from above, with two lines to a compound.
Each structure is followed by: PKD1 kinase inh, RGS16-Gao, INS promoter inh, INS promoter inh cell count, GALR2 agonist, HSV replic up, HSV replic up primary fold
3	O=C(Nc1ccc(-c2nc3cccnc3s2)cc1)c1ccc(Br)o1
 : -12, 102, nt, nt, -0.7, i, 0.78
8	CCCc1nc2oc3c(OC)ncnc3c2c2c1COC(C)(C)C2
 : 0, 104, -19, 79, 0.6, i, 1.2

Continuation.
item	canonical_smiles	PKD1 kinase inh	RGS16-Gao	INS promoter inh	INS promoter inh cell count
9	CCCCOc1ccc(C(=O)NCc2ccncc2)cc1	-2	100	28	81
10	CC(C)(C)NC(=O)C(c1ccncc1)N(CC1CCCO1)C(=O)Cn1nnc(-c2ccc(F)cc2)n1 (configuration not stated)	-3	98	nt	nt
11	Cc1ccn2cc(CCNC(=O)CC(C)(C)C)nc2c1	2	107	28	65
12	COCCn1nnnc1C(c1cccs1)N1CCN(c2ccccc2)CC1 (configuration not stated)	-5	104	nt	nt
13	Cc1cc2cc(CNC(=O)c3cccc([N+](=O)[O-])c3)ccc2[nH]1	-9	101	2	114
14	Cc1ccc(-n2nnnc2SCn2nnc3ccccc3c2=O)cc1	-3	100	3	34
15	CC1(C)Cc2nc3sc(C(N)=O)c(N)c3cc2CO1	nt	96	nt	nt
16	COc1ccc(C2C(=O)N(C3CCCCC3)CC(=O)N2CCc2ccccc2)cc1OC (configuration not stated)	-7	108	nt	nt

item	GALR2 agonist	HSV replic up	HSV replic up primary fold
9	-0.1	i	0.96
10	nt	i	1
11	-0.5	i	0.97
12	-2.8	i	0.92
13	-0.5	i	0.98
14	-2.7	i	0.98
15	nt	i	0.94
16	-2.3	i	0.81

Following part:
item	canonical_smiles	PKD1 kinase inh	RGS16-Gao	INS promoter inh	INS promoter inh cell count
17	O=C(O)C1CC(=O)N(c2ccc(Br)cc2)C1 (configuration not stated)	-12	104	-18	90
18	COCCCn1c(SCc2nnc(-c3ccccc3)o2)nc2sc3c(c2c1=O)CCC3	7	101	17	126
19	CC[C@@H](C(=O)n1nc(C)cc1C)[C@H](NS(=O)(=O)c1ccc(C)cc1)c1ccccc1	-5	112	-44	119
20	CCCCNC(=O)NNC(=O)COc1cccc(C)c1C	1	107	16	113
21	Cc1ccccc1C(=O)c1c[nH]c(C(=O)NCCCn2ccnc2)c1	0	105	45	79
22	CCN(CC)c1ccc(N2C(=O)/C(=C\c3cccnc3)SC2=S)cc1	3	86	nt	nt
23	CCOC(=O)CN(C(=O)CSc1nnc(CNc2ccc(F)cc2)o1)c1ccccc1	11	104	nt	nt
24	COc1ccc(CCN2C(=O)CC(C(N)=O)SC2=Nc2ccccc2)cc1OC (configuration not stated)	9	104	-75	69

item	GALR2 agonist	HSV replic up	HSV replic up primary fold
17	-4.4	i	0.96
18	-2.4	i	0.86
19	-2.0	i	0.93
20	-0.8	i	1.1
21	-2.2	i	1
22	-2.8	i	0.93
23	-0.3	i	1.1
24	0.1	i	0.95

(listing goes on)
item	canonical_smiles	PKD1 kinase inh	RGS16-Gao	INS promoter inh	INS promoter inh cell count
25	Cc1ccc(OC(=O)CCC(=O)NC(C)c2ccccc2)cc1 (configuration not stated)	5	103	8	100
26	Cc1cccc(NC(=O)N[C@@H](C)C(=O)O)c1	2	104	44	95
27	COc1ccc([N+](=O)[O-])cc1/C=N/NC(=O)c1nonc1N	0	113	-20	54
28	CC(C)C[C@H](NC(=O)c1nc[nH]c1C(=O)NC(c1ccccc1)c1ccccc1)C(=O)OC(C)(C)C	-3	98	nt	nt
29	Cc1nn(-c2cccc(Cl)c2)c2nc(-c3ccco3)cc(C(=O)O)c12	-3	99	38	152
30	COc1ccc(N2CCN(C(=O)CCCn3c(=S)[nH]c4cc5c(cc4c3=O)OCO5)CC2)cc1	-6	102	29	71
31	COc1ccc(C(=O)NN2CCCCC2)cc1OC	-3	104	-11	108
32	CC(C)[C@H](NC(=O)Nc1cccc(Br)c1)C(=O)O	1	100	31	112

item	GALR2 agonist	HSV replic up	HSV replic up primary fold
25	-1.5	nt	nt
26	-2.4	i	0.98
27	nt	i	0.85
28	nt	i	0.85
29	-1.1	i	0.99
30	-1.9	i	0.92
31	-1.3	i	1.1
32	0.0	i	1

Additional records
item	canonical_smiles	PKD1 kinase inh	RGS16-Gao	INS promoter inh	INS promoter inh cell count
33	CS(=O)(=O)N(CC(=O)N1CCN(Cc2ccc3c(c2)OCO3)CC1)C1CCCCC1	-4	101	nt	nt
34	Cc1cc(NC(=O)CSc2ccc3nnc(-c4ccc(Cl)cc4)n3n2)no1	-10	89	nt	nt
35	COc1ccc(C(=O)/C(=C/O)N=Nc2ccc(F)cc2)cc1	-1	101	nt	nt
36	Cc1ccc(C#N)c(SCc2ccccc2[N+](=O)[O-])n1	-1	105	-13	117
37	Cc1ccc(S(=O)(=O)NC(=O)c2cc(C)n(CCCN3CCOCC3)c2C)cc1	-7	145	-21	113
38	COc1cc(-c2nc(S(=O)(=O)c3ccc(Cl)cc3)c(N(C)C)o2)cc(OC)c1OC	-2	107	19	97
39	COc1ccccc1CCNC(=O)/C(=C/c1cccnc1)NC(=O)c1ccccc1	-14	114	nt	nt
40	CSc1sc(C#N)c2c1/C(=N\O)CCC2	nt	100	nt	nt

item	GALR2 agonist	HSV replic up	HSV replic up primary fold
33	nt	i	0.97
34	-1.1	i	0.76
35	nt	i	1.1
36	-0.1	i	0.99
37	2.2	nt	nt
38	-0.7	i	0.88
39	0.3	i	0.97
40	nt	i	0.91

The list goes on:
item	canonical_smiles	PKD1 kinase inh	RGS16-Gao	INS promoter inh	INS promoter inh cell count
41	Cc1cc(C)n(C(=O)c2ccc(NC(=O)CC(C)C)cc2)n1	-11	97	74*	38*
42	CC1CN(C(=O)Nc2ccc3c(c2)OCCO3)CC(C)O1 (configuration not stated)	1	92	44	140
43	O=[N+]([O-])C(=C1SCCS1)C(=C(Cl)Cl)N1CCCCC1	5	99	-81	114
44	CCN1C(=O)CC(N2CCN(CC(=O)NC(C)C)CC2)C1=O (configuration not stated)	-6	103	-36	99
45	COc1cc(NC(=O)CSc2nnc(C)s2)cc(OC)c1OC	-4	103	56	136
46	O=C(NCc1n[nH]c(=S)n1Cc1ccccc1)c1ccc(Cl)cc1Cl	13	90	nt	nt
47	COc1cc(Nc2ncnc(N)n2)cc(OC)c1	nt	99	nt	nt
48	Cc1cccn2c(=O)c3cc(C(=O)NCC4CCCO4)c(=N)n(Cc4cccnc4)c3nc12 (configuration not stated)	-3	103	4	117

item	GALR2 agonist	HSV replic up	HSV replic up primary fold
41	4.0	i	0.89
42	nt	i	0.96
43	nt	i	0.98
44	-1.2	i	1
45	-2.6	i	0.9
46	nt	i	1
47	nt	i	0.76
48	1.2	i	1.2

Continued:
item	canonical_smiles	PKD1 kinase inh	RGS16-Gao	INS promoter inh	INS promoter inh cell count
49	CC1CC(C)(C)NC(=S)N1CCC(=O)NCc1ccc(Cl)cc1 (configuration not stated)	-1	95	-73	78
50	O=S(=O)(Nc1ccc2c(c1)OCO2)c1ccc(Br)s1	-7	97	-62	98
51	Cc1nc(NC(=O)c2ccccc2)sc1-c1csc(NCCc2ccccc2)n1	11	102	nt	nt
52	Cc1ccc(CN(CC(=O)NC2CCCC2)C(=O)CSc2nnc(COc3ccccc3)o2)cc1	-10	116	10	57
53	O=C(Nc1ccccc1C(=O)Nc1nncs1)c1ccccc1	nt	96	nt	nt
54	c1ccc(CCNc2c3c(nc4ncnn24)CCC3)cc1	-10	54	nt	nt
55	CCOC(=O)CSC1=N/C(=C/c2ccc(-n3cncn3)cc2)C(=O)N1C(C)=O	-5	93	nt	nt
56	CC(C)CC(=O)Nc1ccc(C(=O)COc2ccc(-c3nnco3)cc2)cc1	1	98	nt	nt

item	GALR2 agonist	HSV replic up	HSV replic up primary fold
49	nt	i	0.7
50	-0.6	i	1.1
51	-2.5	i	0.9
52	3.9	i	0.81
53	nt	i	0.93
54	0.4	i	1.1
55	nt	i	0.87
56	-3.7	i	1.1

Further results
item	canonical_smiles	PKD1 kinase inh	RGS16-Gao	INS promoter inh	INS promoter inh cell count
57	O=c1c2sccc2nc(SCc2cc(=O)n3ccccc3n2)n1-c1ccc(Br)cc1	8	104	-12	82
58	CCOc1cc(CN2CCN(C(=O)CC(C)C)CC2)ccc1OC	-10	106	nt	nt
59	COc1cccc(C(=O)CSc2nnc(CNS(=O)(=O)c3ccc(C)cc3)n2C)c1	-1	103	-33	102
60	CC(Oc1cccc(Cl)c1)C(=O)Nc1ccncc1 (configuration not stated)	-4	97	nt	nt
61	CCOc1ccc(NC(=O)C2CC(=O)NC(N3CCc4ccccc43)=N2)cc1 (configuration not stated)	3	104	8	118
62	CN(C)c1ccc(C(=O)N2CCN(c3cc(C(F)(F)F)nc4ccccc34)CC2)cc1	nt	96	nt	nt
63	CCN(C(=O)c1cnc(OC)cc1C(F)(F)F)c1ccc(Cl)cc1Cl	nt	89	nt	nt
64	O=CN1CCN(C2CC(=O)N(c3ccc(Br)cc3)C2=O)CC1 (configuration not stated)	-11	100	12	97

item	GALR2 agonist	HSV replic up	HSV replic up primary fold
57	1.7	i	0.95
58	-3.9	i	1.1
59	-3.0	i	0.87
60	nt	i	1.1
61	-0.9	i	0.92
62	nt	i	0.93
63	nt	i	1.1
64	-1.3	i	0.93

The list goes on; the last 2 above are carried over.
item	canonical_smiles	PKD1 kinase inh	RGS16-Gao	INS promoter inh	INS promoter inh cell count
63	CCN(C(=O)c1cnc(OC)cc1C(F)(F)F)c1ccc(Cl)cc1Cl	nt	89	nt	nt
64	O=CN1CCN(C2CC(=O)N(c3ccc(Br)cc3)C2=O)CC1 (configuration not stated)	-11	100	12	97
65	COc1ccccc1OCC(=O)N/N=C1/SCC(=O)N1Cc1ccccc1	-2	92	21	109
66	CCOc1ccc(C(C)=O)cc1N1C(=O)C2C3C=CC(C3)C2C1=O (configuration not stated)	2	98	-14	136
67	Cc1ccc(S(=O)(=O)NCCC(=O)O)cc1	-1	103	-4	110
68	O=C(O)c1nnn(-c2cccc(C(F)(F)F)c2)c1-c1ccccc1	nt	107	nt	nt
69	CN(c1ccccc1C(=O)N1CCOCC1)S(C)(=O)=O	-8	99	38	76
70	CCOC(=O)Cc1csc(NC(=O)COc2ccc3ccccc3c2)n1	-10	91	-14	79
71	Cc1ccccc1C(=O)N1CCCN(C(=O)c2ccccc2C)CC1	3	104	6	85
72	COc1ccc(NC(=O)CCCn2c(=O)c3sccc3n(Cc3ccccc3C)c2=O)cc1	-14	112	-60	94

item	GALR2 agonist	HSV replic up	HSV replic up primary fold
63	nt	i	1.1
64	-1.3	i	0.93
65	-2.0	i	0.78
66	-1.3	i	1.1
67	-1.1	i	0.9
68	nt	i	0.93
69	-0.1	i	0.89
70	-1.9	i	1
71	-1.6	i	1
72	0.4	i	0.88

(listing goes on)
item	canonical_smiles	PKD1 kinase inh	RGS16-Gao	INS promoter inh	INS promoter inh cell count
73	C/C(=N/NC(=O)c1cnccn1)c1cccs1	-13	103	40	107
74	O=C(O)Cc1ccc2[nH]c3ccc(CC(=O)O)cc3c2c1	2	105	nt	nt
75	C=CCNc1nc(N)c([N+](=O)[O-])c(NCCO)n1	nt	94	nt	nt
76	O=C(O)C(Cc1ccccc1)N1C(=O)CCC1=O (configuration not stated)	-4	97	nt	nt
77	COC(=O)c1ccccc1Sc1c(/C=N/OC(=O)c2ccccc2)c(C(F)(F)F)nn1C	-6	95	32	64
78	C#CCN(C)Cc1ccccc1	-1	107	23	89
79	O=C(CN1CCN(Cc2ccccc2Cl)CC1)N/N=C/C=C/c1ccccc1[N+](=O)[O-]	1	99	3	136

item	GALR2 agonist	HSV replic up	HSV replic up primary fold
73	-1.6	i	0.93
74	-0.6	i	1
75	nt	i	1
76	nt	i	0.98
77	-0.2	i	0.94
78	-0.9	i	0.79
79	-0.9	i	0.76

Bioassay records as filed in PubChem BioAssay.
